High-throughput results deposited in PubChem by several laboratories.
Mtb hypoxia inh: Mtb hypoxia fluorescent reporter inhibition; fluorescence inhibition, % (concentration not given with the values); M. tuberculosis hypoxia-regulated fluorescent reporter, fluorescence; 0.1% of 300,000 active; AID 1159583;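 active means 35 to 45% if threefold the growth effect, above 45% if 1.5-fold the growth effect; inactive means the rest, general growth blockers included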;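 further: wells of about 50 µL received 100 nL stock; 0% = vehicle wells and 100% = reference inhibitor wells; whole bacteria with a GFP reporter of the hypoxia response; strong numbers were not always called active; many hits fall short of the cut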
Sa ugtP lethal: kills S. aureus RN4220 lacking UgtP. S. aureus RN4220 ugtP deletion, OD600 growth, 16 h; some inactives read as strong as hits. 0.54% of 330,000 active. growth inhibition, % (no concentration beside the values);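 active means z-score under -3 and OD600 up to 0.15 on both plates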;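 further: plate controls were untreated wells for no effect and antibiotic for full effect; wells of about 80 µL received 100 nL stock; the first replicate is given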
PrP UTR inh: inhibition of PrP 5' UTR reporter expression; cell-based PrP 5' UTR mRNA reporter, plate reader; inhibition, % (test concentration not listed); 0.35% of 340,000 active;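 active means every replicate at 50% or more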;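 further: 0 = median of the neutral control wells; tested in H4 reporter cells; numbers are from one replicate; inactives centre near -14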
BJeLR viability: kills HRASV12-expressing BJeLR cells. BJeLR (HRASV12) viability, CellTiter-Glo ATP luminescence, 48 h; reference of the scale not given here. inhibition, % (no concentration beside the values). 0.17% of 300,000 active. AID 1554;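 active means replicate mean above 50%; inconclusive means above 50% but judged a plate artefact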;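 further: 50 nL library stock added to about 25 µL; numbers are from one replicate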
RN4220 kill: kills Staphylococcus aureus RN4220 | S. aureus RN4220 growth, OD600, 16 h | inhibition, % (no concentration beside the values) | 0.33% of 330,000 active | AID 1259311;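 active means z-score of -3 or lower and OD600 up to 0.18 on both plates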;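 further: plate controls were untreated cells for no effect and reference antibiotic for full effect; stock transfer was 100 nL into about 80 µL; one replicate is shown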
Bead autofluor: counter-screen for toxin protease inhibitors: compound fluorescence; compound autofluorescence counterscreen, microsphere flow cytometry; hits give high values; fluorescence intensity (no concentration beside the values); 3.1% of 360,000 active;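 active means at least 3 SD above the mean of all compounds, about 16000 in these data; inconclusive means too few beads counted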;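 further: 100 nL of 1 mM stock went into each well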
Mtb hypoxia inh growth: further read-out of Mtb hypoxia inh, marked with its call; growth inhibition, %; measured here: M. tuberculosis growth (absorbance);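 0% = vehicle and 100% = reference antibiotic; read after six days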
Starred values were filed as active, the others as inactive; ? = inconclusive; . = no result given. No enrichment for hits; any-hit rate near 4%.

cpd	Compound	Mtb hypoxia inh	Mtb hypoxia inh growth	Sa ugtP lethal	PrP UTR inh	BJeLR viability	RN4220 kill	Bead autofluor
1	CCc1ccc(NC(=O)c2ccc(OC)c([N+](=O)[O-])c2)cc1	10	13	3	-17	-3	0.9	2471
2	C=CCSc1nnc(N2C(=O)C(O)=C(C(=O)c3ccco3)C2c2ccc(F)cc2)s1 (stereo not drawn)	.	.	.	14	-5	.	6926
3	O=c1[nH]c(=O)n(Cc2ccccc2)c2nc(-c3ccc(Oc4ccc(F)cc4)c([N+](=O)[O-])c3)n(CCO)c12	3	7	1	12	7	3.0	2591
4	CC(=O)Nc1ccc(S(=O)(=O)N(C)CC(=O)OCC(=O)N(C)C2CCS(=O)(=O)C2)cc1 (stereo not drawn)	-1	-3	3	-1	-3	1.6	?
5	CC(C)c1c(O)nc(SCCC(=O)O)[nH]c1=O	3	3	-12	-8	-1	11	10568
6	Cc1ccccc1NC(=O)n1ncc2cc(Cl)ccc21	5	-1	8	-57	-10	4.1	2774
7	Cc1ccccc1C(=O)NC(=S)NCc1cccnc1	4	0	9	-6	5	0.3	3235
8	COc1ccccc1CNc1ncccc1[N+](=O)[O-]	3	-3	6	.	-1	2.3	3596

Additional results follow.
cpd	Compound	Mtb hypoxia inh	Mtb hypoxia inh growth	Sa ugtP lethal	PrP UTR inh	BJeLR viability	RN4220 kill	Bead autofluor
9	O=C(O)c1ccc(N2CCCCS2(=O)=O)cc1	5	2	-7	-30	1	0.6	4575
10	O=Cc1c(Sc2ccccn2)nc2ccccn2c1=O	.	.	5	-3	-6	2.6	5066
11	COc1cc(SC)ccc1C(=O)NCCNC(=O)c1nonc1N	-1	-7	1	2	-4	1.7	2943
12	CCCCCCCn1c(=N)n(CC(O)c2ccco2)c2ccccc21 (stereo not drawn)	-7	12	-24	1	-5	-0.3	9924
13	O=C1NN(c2cccc(Br)c2)C(=O)/C1=C/c1cccs1	9	13	7	5	-4	3.4	.
14	O=C(Cc1cccc2ccccc12)Nc1ccc(OC(F)F)c(Cl)c1	-2	-5	-21	-15	-14	-16	2140
15	COc1cc(CN(C(=O)c2ccco2)c2ccc(C)cc2)ccc1O	6	11	-8	-17	6	12	10493
16	COc1cc(OC)c2c(-c3cccc(-c4ccc(NC(C)=O)cc4)c3)cc(=O)oc2c1	-1	6	-7	30	.	1.7	3448

The list continues.
cpd	Compound	Mtb hypoxia inh	Mtb hypoxia inh growth	Sa ugtP lethal	PrP UTR inh	BJeLR viability	RN4220 kill	Bead autofluor
17	CCC1CCCCN1Cc1cc(OC)c(O)c([N+](=O)[O-])c1 (stereo not drawn)	9	10	7	.	2	5.3	.
18	COc1ccc(S(=O)(=O)N2CCOCC2)cc1NC(=O)Cc1coc2cc(C)c(C)cc12	5	7	3	-28	4	0.3	5393
19	O=C(O)C1C2CCC(C2)C1C(=O)Nc1nc2ccccc2s1 (stereo not drawn)	.	.	2	-8	-3	2.3	.
20	Cc1ccc(S(=O)(=O)N2CCN(CCNC(=O)C(=O)NCc3ccccc3)CC2)cc1	1	-2	7	-18	3	0.8	3913
21	O=C(NC(O)C(=O)c1ccc(F)cc1)c1ccc(F)cc1 (stereo not drawn)	4	1	8	10	-11	5.4	3310
22	CC(C)(C)[C@]1(O)C[C@@H]2OC(=O)C[C@@]23C(=O)O[C@@H]2OC(=O)[C@H](O)[C@]213	.	.	.	-7	-2	.	3930
23	Cc1oc(C(N)=O)cc1COc1ccc(C(N)=O)cc1	2	-2	4	-25	-5	2.8	5978
24	Cc1cc2c(c(SCC(N)=O)n1)C(=O)OC2	6	-5	0	-7	-19	3.5	4453

Further entries
cpd	Compound	Mtb hypoxia inh	Mtb hypoxia inh growth	Sa ugtP lethal	PrP UTR inh	BJeLR viability	RN4220 kill	Bead autofluor
25	O=C(Cc1cccs1)Nc1ccccn1	6	2	-3	-14	0	1.6	3292
26	Cc1nnc(SCC(=O)NC2CCCC2)s1	11	3	-2	-9	-17	-0.2	.
27	CC1(C)Cc2c(c(N3CCOCC3)nc3snc(Br)c23)CO1	-1	12	-2	-18	5	-0.7	3672
28	O=C(CCS(=O)(=O)c1ccccc1)NC12CC3CC(CC(C3)C1)C2	.	.	6	-66	1	9.5	3448
29	O=C(CN1C(=O)c2ccccc2C1=O)Nc1cccc([N+](=O)[O-])c1	.	.	.	-11	-11	.	2717
30	N=c1n(Cc2ccccc2Cl)c2ccccc2n1CC(O)c1ccco1 (stereo not drawn)	-1	6	3	-47	6	12	3892
31	O=C(NCCc1ccccc1)C(=O)c1cn(CC(=O)N2CCCC2)c2ccccc12	2	-1	14	-7	-8	3.0	4636
32	COC(=O)Cc1ccc(NC(=S)N2CCN(C(=O)C3CCCO3)CC2)cc1 (stereo not drawn)	7	5	7	-5	9	3.9	5786

Going on with the list:
cpd	Compound	Mtb hypoxia inh	Mtb hypoxia inh growth	Sa ugtP lethal	PrP UTR inh	BJeLR viability	RN4220 kill	Bead autofluor
33	N#CC1=C(N)Oc2c(ccc3cccnc23)C1c1ccncc1 (stereo not drawn)	-10	-9	1	-9	6	-5.0	5240
34	C[C@]12CCC3C(CC[C@H]4C[C@H](O)CC[C@]34C)C1C[C@H](O)[C@H]2O (stereo partly drawn)	9	10	4	-39	.	8.6	3499
35	COc1ccc(C(C)=O)cc1Cc1c(O)[nH]c(=S)[nH]c1=O	1	-7	1	-17	-4	1.8	3782
36	COc1cc(CNC2CCC(C)C2)cc(OC)c1 (stereo not drawn)	5	9	-2	-7	-2	-1.3	7992
37	Cc1c(Cl)cccc1NC(=S)NCc1ccco1	2	11	-5	-20	11	0.2	4728
38	CCOc1cc(C=C2C(=O)NC(=S)NC2=O)ccc1O	16	6	9	-13	.	4.1	2928
39	CCN(CC)C(=O)CSc1nnc(-c2ccncc2)n1N	5	4	8	-18	-5	8.6	16267*
40	CC1CN(C)C(c2ccccc2)C(C)C12NC(=O)NC2=O (stereo not drawn)	.	.	3	-13	-2	-0.2	5604

Remaining list, next part
cpd	Compound	Mtb hypoxia inh	Mtb hypoxia inh growth	Sa ugtP lethal	PrP UTR inh	BJeLR viability	RN4220 kill	Bead autofluor
41	Cc1nc2ccccc2c(C)c1CC(=O)N(CC(C)C)c1c(N)n(Cc2ccccc2)c(=O)[nH]c1=O	-3	1	-3	-35	2	-0.6	?
42	CCOc1ccc(Br)cc1S(=O)(=O)N1CCCN(C)CC1	14	-3	9	-2	-14	4.0	3143
43	COc1ccc(CN2CCN(Cc3cn(C)nc3-c3ccccc3)CC2CCO)c(C)c1C (stereo not drawn)	0	0	1	-11	-3	0.8	3330
44	Cc1ccc(NC(CC(=O)c2ccccc2)c2ccc(F)cc2)cc1 (stereo not drawn)	.	.	32	-45	0	2.2	10508
45	CC1CC(=O)N(c2ccc(NCCc3ccccc3)c([N+](=O)[O-])c2)C1=O (stereo not drawn)	8	2	3	-30	-2	5.1	4558
46	CCOC(=O)c1ccc(NC2=CC(=O)CC(c3ccco3)C2)cc1 (stereo not drawn)	-1	10	2	-29	0	0.1	3591
47	Cc1cccc(C(=O)Nc2nnc(SCC(=O)Nc3ccc4c(c3)oc3ccccc34)s2)c1	2	11	-7	-69	-8	2.0	2330
48	O=C(CSc1ncccn1)N/N=C/c1ccc(OC2CSC2)cc1	.	.	.	-55	-4	.	4408

Next part.
cpd	Compound	Mtb hypoxia inh	Mtb hypoxia inh growth	Sa ugtP lethal	PrP UTR inh	BJeLR viability	RN4220 kill	Bead autofluor
49	Cc1ccc(S(=O)(=O)/N=C(\N)Nc2nc(C)c3cc(C)c(C)cc3n2)cc1	.	.	.	2	-7	.	9971
50	O=C(Nc1cccc(S(=O)(=O)N2CCCCC2)c1)c1ccc(OCC2CCCO2)cc1 (stereo not drawn)	-4	12	0	0	3	1.7	4622
51	Cc1ccc(NC(=O)c2cc3c(CO)cnc(C)c3oc2=Nc2cccc(C(N)=O)c2)cc1	-4	1	-1	-15	9	5.6	3518
52	CC(C)Oc1ccc(C(=O)Nc2ccccc2N2CCOCC2)cc1	9	8	6	-13	0	1.7	2079
53	C[C@H](CO)N1C[C@H](C)[C@@H](CN(C)Cc2ccccc2)Oc2c(NC(=O)c3ccncc3)cccc2C1=O	0	5	12	-6	.	4.8	2914
54	Oc1ccc(N=Nc2nccs2)c(O)c1	24	8	1	-29	12	-0.1	3521
55	CC1CCCC(NC(=O)Cn2c(Cl)nc3c2c(=O)n(C)c(=O)n3C)C1C (stereo not drawn)	11	8	7	-12	.	2.5	3085
56	COc1ccccc1CNC(=O)C1CCN(S(=O)(=O)N2CC(C)CC(C)C2)CC1 (stereo not drawn)	-9	-1	-4	-19	0	-2.4	7960

(cont.)
cpd	Compound	Mtb hypoxia inh	Mtb hypoxia inh growth	Sa ugtP lethal	PrP UTR inh	BJeLR viability	RN4220 kill	Bead autofluor
57	CCCCNC(=O)c1cc2nc(-c3ccccc3)cc(C(F)(F)F)n2n1	18	19	14	-31	-1	-2.4	3538
58	O=C(Cn1c(=O)oc2cc(S(=O)(=O)N3CCCC3)ccc21)N1CCc2ccccc2C1	1	1	3	7	6	-0.2	4359
59	C#CCOC(=O)Nc1ccc(=O)n(Cc2c(Cl)cccc2Cl)c1	5	6	-5	-19	-3	-1.7	9180
60	COc1cc(CN2CCC(C(=O)NC3CCCC3)CC2)ccc1O	9	10	7	-35	-5	3.5	10082
61	O=C(N/N=C/c1sc(N2CCCCC2)nc1-c1cccs1)c1cccnc1	.	.	.	1	6	.	16425*
62	Cc1ccccc1-c1noc(CCC(=O)NCCc2ccccc2)n1	-2	3	5	-15	2	1.8	3368
63	COc1ccc(N(CC(=O)Nc2c(C)n(C)n(-c3ccccc3)c2=O)S(=O)(=O)c2ccccc2)cc1OC	-4	4	-2	-11	7	-6.3	2807
64	COc1ccc(OC)c(NC2c3ccccc3C(=O)N2c2cccnc2)c1 (stereo not drawn)	-4	2	2	-24	1	14	5252
65	COC(=O)c1ccccc1NS(=O)(=O)c1c(C)noc1C	5	2	-2	-2	6	6.1	5588

Given in transposed form: part of the list above
53. C[C@H](CO)N1C[C@H](C)[C@@H](CN(C)Cc2ccccc2)Oc2c(NC(=O)c3ccncc3)cccc2C1=O
54. Oc1ccc(N=Nc2nccs2)c(O)c1
55. CC1CCCC(NC(=O)Cn2c(Cl)nc3c2c(=O)n(C)c(=O)n3C)C1C (stereo not drawn)
56. COc1ccccc1CNC(=O)C1CCN(S(=O)(=O)N2CC(C)CC(C)C2)CC1 (stereo not drawn)
57. CCCCNC(=O)c1cc2nc(-c3ccccc3)cc(C(F)(F)F)n2n1
58. O=C(Cn1c(=O)oc2cc(S(=O)(=O)N3CCCC3)ccc21)N1CCc2ccccc2C1
59. C#CCOC(=O)Nc1ccc(=O)n(Cc2c(Cl)cccc2Cl)c1
60. COc1cc(CN2CCC(C(=O)NC3CCCC3)CC2)ccc1O

Compound	53	54	55	56	57	58	59	60
Mtb hypoxia inh	0	24	11	-9	18	1	5	9
Mtb hypoxia inh growth	5	8	8	-1	19	1	6	10
Sa ugtP lethal	12	1	7	-4	14	3	-5	7
PrP UTR inh	-6	-29	-12	-19	-31	7	-19	-35
BJeLR viability	.	12	.	0	-1	6	-3	-5
RN4220 kill	4.8	-0.1	2.5	-2.4	-2.4	-0.2	-1.7	3.5
Bead autofluor	2914	3521	3085	7960	3538	4359	9180	10082

61. O=C(N/N=C/c1sc(N2CCCCC2)nc1-c1cccs1)c1cccnc1
62. Cc1ccccc1-c1noc(CCC(=O)NCCc2ccccc2)n1
63. COc1ccc(N(CC(=O)Nc2c(C)n(C)n(-c3ccccc3)c2=O)S(=O)(=O)c2ccccc2)cc1OC
64. COc1ccc(OC)c(NC2c3ccccc3C(=O)N2c2cccnc2)c1 (stereo not drawn)
65. COC(=O)c1ccccc1NS(=O)(=O)c1c(C)noc1C

Compound	61	62	63	64	65
Mtb hypoxia inh	.	-2	-4	-4	5
Mtb hypoxia inh growth	.	3	4	2	2
Sa ugtP lethal	.	5	-2	2	-2
PrP UTR inh	1	-15	-11	-24	-2
BJeLR viability	6	2	7	1	6
RN4220 kill	.	1.8	-6.3	14	6.1
Bead autofluor	16425*	3368	2807	5252	5588
